Compound activity from PubChem.
Vaccinia stage: blocks a specific stage of Vaccinia orthopoxvirus infection; Vaccinia-infected cells, mCherry/Venus stage reporter fluorescence; stronger effect = lower value; some inactives read as strong as hits; activity change (mCherry), % (no concentration beside the values); 89,000 compounds, 0.01% hits; AID 1053133;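 active means mCherry past -33% and 40 or more points under the early reporter, replicates agreeing; inconclusive means past -33% without that gap or agreement; tested in A549 cells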;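 further: scaled between vehicle wells and reference inhibitor wells; 23 nL library stock went into each well; one replicate is shown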
Vaccinia stage Venus: recorded beside Vaccinia stage, whose call it bears; activity change (Venus), %; measured here: Venus reporter, other viral stage;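 negative = less Venus signal; first of two replicates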
* marks the source's active call; other numbers are inactive results; ? = inconclusive; . = no result given. A portion of the library; the hit share may differ from the screen's.

| smiles | Vaccinia stage | Vaccinia stage Venus |
| --- | --- | --- |
| C[C@@H]1CCCCO[C@@H](CN(C)Cc2ccc3c(c2)OCO3)[C@@H](C)CN([C@H](C)CO)C(=O)c2cc(NC(=O)C3CCCCC3)ccc2O1 | -19.2 | -16.0 |
| CCCNC(=O)[C@@H]1[C@@H](CO)[C@@H]2Cn3c(ccc(/C=C/c4ccccc4)c3=O)[C@H]1N2C(=O)c1ccncc1 | 11.2 | 8.8 |
| CNC(=O)C[C@@H]1CC[C@@H]2[C@@H](COc3ccc(NC(=O)Nc4ccccc4OC)cc3C(=O)N2C)O1 | 0.3 | -0.9 |
| COC(=O)[C@@H]1[C@@H](CO)[C@@H]2Cn3c(ccc(C4=CCCC4)c3=O)[C@H]1N2Cc1ccccn1 | 27.4 | 17.2 |
| N#C[C@@H]1[C@H](c2ccccc2C2=CCCC2)[C@H](CO)N1C(=O)CN1CCOCC1 | 10.0 | 9.0 |
| O=C(c1cccc(F)c1)N1CCCCN2[C@@H](CO)[C@H](c3ccc(/C=C/c4ccccc4)cc3)[C@@H]2C1 | -23.4 | -18.8 |
| N#C[C@H]1[C@H](c2ccc(C3=CCCCC3)cc2)[C@H](CO)N1C(=O)NC1CCCC1 | ? | . |
| C[C@H]1CCCCO[C@H](CN(C)Cc2ccc(C(=O)O)cc2)[C@@H](C)CN([C@@H](C)CO)C(=O)c2cc(NC(=O)c3ccccc3)ccc2O1 | 3.1 | -4.8 |
| CO[C@@H]1CN(C)C(=O)c2ccc(NS(C)(=O)=O)cc2OC[C@H](C)N(Cc2cccnc2)C[C@@H]1C | 34.3 | 10.9 |
| COC(=O)C[C@H]1C[C@H]2c3cc(NS(=O)(=O)c4cccc(OC)c4)ccc3O[C@H]2[C@H](CO)O1 | 4.7 | 0.8 |
| CC(C)NC(=O)Nc1ccc2c(c1)C(=O)N([C@@H](C)CO)C[C@H](C)[C@@H](CN(C)C(=O)C1CCCCC1)OCCCC[C@@H](C)O2 | -2.3 | 3.7 |
| Cc1noc(C)c1NC(=O)Nc1cccc2c1O[C@@H](CN(C)S(=O)(=O)c1cn(C)cn1)[C@H](C)CN([C@H](C)CO)C2=O | 11.0 | 5.4 |
| CO[C@H]1CN(C)C(=O)c2cc(NC(=O)NC(C)C)ccc2OC[C@@H](C)N(C(=O)NC(C)C)C[C@H]1C | 8.1 | 2.9 |
| CN(C)CC#Cc1ccc([C@H]2[C@H](CO)N3CCCCN(C(=O)C4CCC4)C[C@@H]23)cc1 | 14.9 | 4.0 |
| C[C@@H]1CN([C@@H](C)CO)C(=O)c2cccc(NC(=O)C3CCCCC3)c2O[C@H]1CN(C)Cc1ccc2c(c1)OCO2 | -12.9 | -19.3 |
| CN(C)C(=O)C[C@H]1CC[C@@H]2[C@H](COC[C@H](O)CN2CC2CC2)O1 | 13.2 | 12.2 |
| C[C@H](CO)N1C[C@H](C)[C@@H](CN(C)Cc2ccc(Cl)c(Cl)c2)Oc2c(NC(=O)C3CCCCC3)cccc2C1=O | -33.2 | -24.2 |
| COCCNC(=O)C[C@@H]1C[C@@H]2c3cc(NC(=O)C4CCC4)ccc3O[C@@H]2[C@@H](CO)O1 | 0.0 | 1.8 |
| CO[C@H]1CN(C)C(=O)c2cc(NC(=O)Nc3ccc(C(F)(F)F)cc3)ccc2OC[C@H](C)NC[C@H]1C | ? | . |
| COC(=O)C[C@H]1C[C@@H]2c3cc(NC(=O)C4CCOCC4)ccc3O[C@@H]2[C@H](CO)O1 | 14.9 | 14.4 |
| COc1ccc(S(=O)(=O)N(C)C[C@H]2OCCCC[C@H](C)Oc3ccc(NS(=O)(=O)c4ccc(C)cc4)cc3C(=O)N([C@@H](C)CO)C[C@H]2C)cc1 | 1.2 | -5.6 |
| C[C@H](CO)N1C[C@H](C)[C@@H](CN(C)C(=O)[C@H](C)c2ccccc2)OCc2ccccc2-c2c(n(C)c3ccccc23)C1=O | -26.0 | -23.7 |
| O=S(=O)(Cc1ccccc1)N1CCCCN2[C@H](CO)[C@H](c3ccc(-c4cccnc4)cc3)[C@H]2C1 | -4.9 | -24.0 |
| O=C(c1ccncc1)N1C[C@@H]2[C@H](c3ccccc31)[C@@H](CO)N2Cc1ccccc1F | 7.2 | 5.0 |
| O=C(N[C@@H]1CC[C@@H](CC(=O)N2CCc3ccccc3C2)O[C@H]1CO)C1CC1 | -1.2 | -5.6 |
| C[C@@H]1CN([C@H](C)CO)C(=O)c2ccccc2-c2ccccc2CO[C@@H]1CN(C)C | -2.3 | 2.3 |
| O=C(NCc1ccccc1)C1=C[C@@H](C2CC2)C[C@@H](OCc2ccc(CO)cc2)O1 | 17.9 | 6.0 |
| C[C@@H]1CN([C@H](C)CO)C(=O)Cc2cc(NC(=O)NC3CCCCC3)ccc2O[C@@H]1CN(C)Cc1ccc2c(c1)OCO2 | -15.2 | -12.3 |
| Cc1noc(C)c1S(=O)(=O)Nc1ccc2c(c1)C(=O)N([C@@H](C)CO)C[C@H](C)[C@H](CN(C)C(=O)Nc1ccc(C(F)(F)F)cc1)O2 | -6.4 | -14.9 |
| C[C@@H]1CN([C@@H](C)CO)C(=O)c2cc(C#CCc3ccccc3)cnc2O[C@H]1CN(C)Cc1ccccn1 | -13.4 | -7.2 |
| COc1ccc(CN(C)C[C@H]2Oc3ccc(NC(=O)Nc4ccccc4)cc3CC(=O)N([C@@H](C)CO)C[C@@H]2C)cc1 | -5.2 | -3.2 |
| O=C(C[C@H]1C[C@@H]2c3cc(NC(=O)c4cccnc4)ccc3O[C@@H]2[C@H](CO)O1)NCc1cccnc1 | 16.1 | 6.5 |
| CC(C)C#Cc1ccc([C@@H]2[C@H](C#N)N(C(=O)C3CC3)[C@H]2CO)cc1 | -4.9 | -3.5 |
| O=C(Cc1ccccc1)N1C[C@@H]2[C@H](c3ccccc31)[C@@H](CO)N2C(=O)Nc1ccc(F)cc1 | 17.7 | 12.0 |
| O=C(Nc1cccc(Cl)c1)N[C@H]1CC[C@@H](CCNC(=O)C2CCCC2)O[C@H]1CO | -4.1 | 8.7 |
| COc1ccc(CN(C)C[C@@H]2Oc3ccc(NC(=O)Cc4cn(C)c5ccccc45)cc3CC(=O)N([C@H](C)CO)C[C@H]2C)cc1 | -11.4 | -7.9 |
| O=C(C[C@@H]1CC[C@H](NC(=O)Nc2ccccc2F)[C@H](CO)O1)NCc1ccc(Cl)cc1 | 0.4 | -3.4 |
| O=C(C1CCOCC1)N1CC(=O)N2[C@@H](CO)[C@H](c3ccc(C#Cc4cccc(F)c4)cc3)[C@@H]2C1 | -27.0 | -53.4 |
| O=C(C[C@@H]1CC[C@@H]2[C@H](COC[C@H](O)CN2C(=O)c2cnccn2)O1)NCc1ccc(Oc2ccccc2)cc1 | -8.7 | -11.1 |
| Cc1noc(C)c1S(=O)(=O)Nc1ccc2c(c1)C(=O)N([C@H](C)CO)C[C@H](C)[C@@H](CN(C)Cc1ccncc1)OCCCC[C@H](C)O2 | 15.0 | 9.1 |
| Cc1ccc(S(=O)(=O)Nc2ccc3c(c2)C(=O)N([C@H](C)CO)C[C@@H](C)[C@H](CN(C)S(=O)(=O)c2cccs2)OCCCC[C@@H](C)O3)cc1 | ? | . |
| C[C@@H]1CN([C@H](C)CO)C(=O)Cc2cc(NC(=O)Cc3ccccc3)ccc2O[C@@H]1CN(C)S(=O)(=O)c1ccc(Cl)cc1 | ? | . |
| CN(C)C(=O)c1ccc(-c2ccc3n(c2=O)C[C@H]2[C@H](CO)[C@@H](C(=O)NCCc4ccccc4)N[C@@H]32)cc1 | 1.5 | 2.9 |
| CO[C@H]1CN(C)C(=O)c2ccc(NC(C)=O)cc2OC[C@@H](C)N(C(=O)C2CC2)C[C@@H]1C | 3.0 | 6.3 |
| O=C(NCC[C@@H]1CC[C@H](NC(=O)C2CCC2)[C@@H](CO)O1)c1ccc(F)cc1 | 7.5 | 1.5 |
| Cc1ccc(S(=O)(=O)N(C)C[C@@H]2OCCCC[C@@H](C)Oc3ccc(NC(=O)Nc4cccc5ccccc45)cc3C(=O)N([C@H](C)CO)C[C@H]2C)cc1 | -12.6 | -9.7 |
| COc1ccc(S(=O)(=O)Nc2cccc3c2O[C@H](CN(C)S(=O)(=O)c2ccc(OC)cc2)[C@@H](C)CN([C@@H](C)CO)C3=O)cc1 | 5.8 | 2.9 |
| Cc1noc(C)c1S(=O)(=O)N(C)C[C@@H]1Oc2ccc(NC(=O)Nc3ccc(F)cc3)cc2CC(=O)N([C@@H](C)CO)C[C@@H]1C | -14.6 | -3.8 |
| CN(C)CC(=O)N[C@@H]1CC[C@H](CCn2cc(C3CC3)nn2)O[C@H]1CO | -3.2 | -4.7 |
| O=C(NCC[C@@H]1CC[C@@H](NS(=O)(=O)c2ccccc2F)[C@H](CO)O1)c1ccc(F)cc1 | -11.1 | -10.4 |
| C[C@H]1CN([C@@H](C)CO)C(=O)CCCn2nncc2CO[C@H]1CN(C)C(=O)C1CC1 | 13.4 | 8.0 |
| C[C@H]1CN([C@@H](C)CO)S(=O)(=O)c2ccc(C3=CCCC3)cc2O[C@@H]1CN(C)S(=O)(=O)c1ccc(F)cc1 | -15.4 | 3.1 |
| C[C@H](CO)N1C[C@H](C)[C@@H](CN(C)Cc2ccc(C(=O)O)cc2)Oc2ccc(NC(=O)Nc3ccccc3)cc2CC1=O | 15.3 | 8.9 |
| CC(C)NC(=O)Nc1ccc2c(c1)C(=O)N([C@H](C)CO)C[C@H](C)[C@@H](CN(C)S(=O)(=O)c1cn(C)cn1)OCCCC[C@H](C)O2 | 12.8 | 5.1 |
| Cc1ccc(S(=O)(=O)N(C)C[C@@H]2Oc3ncc(-c4ccncc4)cc3C(=O)N([C@@H](C)CO)C[C@H]2C)cc1 | 1.0 | -7.3 |
| O=C(NC1CCCC1)N1CC(=O)N2[C@H](CO)[C@H](c3ccc(-c4cccc(F)c4)cc3)[C@@H]2C1 | -13.1 | -7.7 |
| COc1ccc(S(=O)(=O)Nc2ccc3c(c2)CC(=O)N([C@@H](C)CO)C[C@@H](C)[C@@H](CN(C)S(=O)(=O)c2ccc(C)cc2)O3)cc1 | -1.1 | -1.5 |
| COc1ccc2c3c(n(C)c2c1)[C@@H](CO)N(C(=O)c1ccccc1)CC31CCN(C)CC1 | 0.1 | -2.2 |
| O=C(N[C@@H]1CC[C@H](CCNS(=O)(=O)c2ccccc2)O[C@@H]1CO)c1cccnc1 | -3.5 | 10.4 |
| COc1ccc(NC(=O)N(C)C[C@H]2Oc3ccc(NS(=O)(=O)c4ccc(F)cc4)cc3CC(=O)N([C@@H](C)CO)C[C@@H]2C)cc1 | 10.3 | -0.1 |

The results go on.
| smiles | Vaccinia stage | Vaccinia stage Venus |
| --- | --- | --- |
| C[C@H](CO)N1C[C@H](C)[C@@H](CN(C)Cc2ccccc2F)Oc2ncc(C#CCN(C)C)cc2C1=O | 24.1 | 8.7 |
| O=C1O[C@H](c2ccccc2)[C@H](c2ccccc2)N2[C@H]1[C@@H](C(=O)N1CCCCCCC1)[C@]1(C(=O)Nc3ccc(C#CC4(O)CCCCCC4)cc31)[C@H]2c1ccc(OCCO)cc1 | 4.8 | 31.4 |
| CN(C)CC(=O)N[C@H]1CC[C@H](CC(=O)NCc2ccccc2F)O[C@H]1CO | 3.3 | 0.6 |
| Cc1ccc(S(=O)(=O)Nc2ccc3c(c2)C(=O)N([C@H](C)CO)C[C@H](C)[C@@H](CN(C)Cc2ccccc2)O3)cc1 | -11.8 | -5.1 |
| O=C(C[C@H]1CC[C@H]2[C@@H](COC[C@@H](O)CN2Cc2cccc(Cl)c2)O1)NCc1cccc(F)c1 | ? | . |
| C[C@@H]1CN([C@@H](C)CO)C(=O)CCCn2nncc2CO[C@@H]1CN(C)CC1CCCC1 | 6.1 | 2.7 |
| O=C(NC1CCCC1)N[C@H]1CC[C@H](CC(=O)N2CCOCC2)O[C@H]1CO | -11.1 | 8.4 |
| COc1cccc(CNC(=O)C[C@@H]2CC[C@@H](NC(C)=O)[C@H](CO)O2)c1 | 1.6 | -5.2 |
| CN1C(=O)c2cc(NC(=O)c3ccc(C(F)(F)F)cc3)ccc2OC[C@H]2O[C@H](CC(=O)O)CC[C@@H]21 | 8.4 | -0.4 |
| COc1ccc(CNC(=O)C[C@H]2C[C@H]3c4cc(NS(C)(=O)=O)ccc4O[C@H]3[C@H](CO)O2)cc1 | 7.0 | 6.5 |
| O=C(Nc1cccc(Cl)c1)N1C[C@@H]2[C@H](c3ccccc31)[C@H](CO)N2Cc1ccccc1Cl | -13.3 | -8.1 |
| CS(=O)(=O)N1[C@H](C#N)[C@@H](c2ccc(-c3ccccc3F)cc2)[C@@H]1CO | -33.0 | -20.7 |
| O=C(C[C@@H]1CC[C@@H]2[C@H](COC[C@@H](O)CN2C(=O)C2CCOCC2)O1)NCc1ccncc1 | 20.8 | 16.9 |
| COc1ccc(NC(=O)N(C)C[C@@H]2Oc3ccc(NS(=O)(=O)c4ccc(OC)cc4)cc3C(=O)N([C@@H](C)CO)C[C@@H]2C)cc1 | -6.2 | -1.2 |
| CC(C)NC(=O)N[C@@H]1CC[C@@H](CC(=O)O)O[C@@H]1CO | -7.4 | 1.9 |
| CNC[C@H]1Oc2cc(C#Cc3ccccn3)ccc2S(=O)(=O)N([C@@H](C)CO)C[C@@H]1C | 19.0 | 13.4 |
| C/C=C/c1ccc2c(c1)O[C@@H](CN(C)S(C)(=O)=O)[C@@H](C)CN([C@@H](C)CO)S2(=O)=O | 0.8 | -3.0 |

Structural class: those above containing a cyano group.
| smiles | Vaccinia stage | Vaccinia stage Venus |
| --- | --- | --- |
| N#C[C@@H]1[C@H](c2ccccc2C2=CCCC2)[C@H](CO)N1C(=O)CN1CCOCC1 | 10.0 | 9.0 |
| N#C[C@H]1[C@H](c2ccc(C3=CCCCC3)cc2)[C@H](CO)N1C(=O)NC1CCCC1 | ? | . |
| CC(C)C#Cc1ccc([C@@H]2[C@H](C#N)N(C(=O)C3CC3)[C@H]2CO)cc1 | -4.9 | -3.5 |
| CS(=O)(=O)N1[C@H](C#N)[C@@H](c2ccc(-c3ccccc3F)cc2)[C@@H]1CO | -33.0 | -20.7 |
